Assay outcomes: PubChem BioAssay, National Center for Advancing Translational Sciences (NCATS)
VDR inh: blocks the human vitamin D receptor; P11473; VDR-SRC2-3 peptide fluorescence polarization, 2 h; Potency, µM, for inactives: max response, negative = inhibition, usual class: inhibitors; 400,000 tested, 0.93% active; AID 504847; active means well fitted inhibition curve with a large enough effect; inconclusive means small, poorly fitted or top-dose-only effect, or another doubt; inactive means no such curve, though single readings can be large or run the other way; further: series mostly up to about 120 µM
Target sequence (P11473 whole entry, looked up): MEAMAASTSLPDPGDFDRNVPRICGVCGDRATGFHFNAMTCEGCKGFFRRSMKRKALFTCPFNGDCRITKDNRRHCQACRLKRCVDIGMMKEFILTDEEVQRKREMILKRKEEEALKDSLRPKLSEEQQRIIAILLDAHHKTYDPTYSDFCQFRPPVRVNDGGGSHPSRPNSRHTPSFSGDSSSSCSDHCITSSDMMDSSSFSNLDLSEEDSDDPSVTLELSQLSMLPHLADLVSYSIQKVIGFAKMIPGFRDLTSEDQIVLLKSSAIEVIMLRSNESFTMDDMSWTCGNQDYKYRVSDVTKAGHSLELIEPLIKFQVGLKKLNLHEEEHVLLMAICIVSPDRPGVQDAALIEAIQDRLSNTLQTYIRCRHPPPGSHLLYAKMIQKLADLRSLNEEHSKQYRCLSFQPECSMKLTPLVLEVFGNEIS
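FP read-out; VDR + SRC2-3 coactivator peptide; 23 nl compound by pintool; 2 h RT incubation; reagents held at 4 deg C, protected from light.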
An asterisk follows results filed as active; ? = inconclusive; & = joins results of further samples; [ ] = dose if it differs, or a comment. On the % scale 0 is the no-effect control and ±100 the full control effect; potency means the concentration at half of the fitted maximal effect. Not all compounds are listed; count on the stated rates, not on these rows.

SMILES	VDR inh
O=C1c2cccc3cccc(c23)C(=O)N1CC1CCN(S(=O)(=O)c2ccc(F)cc2)CC1	-3%
COc1ccccc1-c1nnc(SC)n1C	1%
NC(=O)c1ccccc1NS(=O)(=O)c1ccc(S(=O)(=O)N2CCCC2)cc1	5%
NS(=O)(=O)c1ccc(N2N=C(c3ccccc3)CC2c2ccccc2Cl)cc1 (centres undefined)	4%
Cc1ccc(Cl)cc1NC(=O)CCn1c(=O)c2cccn2c2cccnc21	11%
C/[N+]([O-])=C1\Cc2ccccc2C1=O	-1%
Cc1ccc(/C=N/NC(=O)c2cccc(S(=O)(=O)Nc3ccccc3Cl)c2)o1	2%
CN(C)c1ccc(C(=O)N=c2sccn2C)cc1[N+](=O)[O-]	-5%
CC(C)Cc1nnc(NC(=O)c2ccc(S(=O)(=O)N3CCCC3)cc2)s1	11%
COc1ccc(OC)c(CCNC(=O)c2c3c(nc4ccccc24)C(=O)N(C2CCCCC2)C3)c1	11%
COc1ccc(SC[C@H](Cc2ccccc2)N2CC[C@@H](C(C)(C)C)CCC2=O)cc1	-17%
COc1ccc(C=NNc2ccc([N+](=O)[O-])cc2S(=O)(=O)Nc2ccccc2C(=O)O)cc1OC	?
COc1ccccc1NS(=O)(=O)NC(=O)c1c(C)[nH]c2ccccc12	-7%
COc1ccc(C(=O)Nc2ccc(Nc3ccccc3)cc2)cc1Br	4%
CCOc1ncccc1C(=O)OCc1nnc(-c2ccccc2)o1	-6%
NC(=S)Cc1nc(-c2ccccc2)cs1	?
COCCNc1c([N+](=O)[O-])c(=O)n(-c2ccccc2)c2ccccc12	-12%
Cc1ccc(NC(=O)COC(=O)C2=NN(c3ccccc3)C(=O)CC2)c(Br)c1	1%
CCn1c(C)nc2cc(C(=O)NNS(=O)(=O)c3cc(Br)ccc3Br)ccc21	0%
CN(C)S(=O)(=O)c1ccc(Cl)c(NC(=O)COC(=O)/C=C/c2ccc(S(=O)(=O)N3CCOCC3)cc2)c1	11%
CC1CCCCC12NC(=O)N(CC(=O)Nc1ccc3[nH]c(=O)[nH]c3c1)C2=O (centres undefined)	8%
O=C(Cc1ccccc1)N1CCN(c2ccc([N+](=O)[O-])cc2)CC1	-5%
Cc1ccc(SCc2nc3ccccc3n2CC(=O)Nc2ccc(Cl)cc2)cc1	0%
COc1ccc(C2NC(=O)NC(C)=C2C(=O)Nc2cc(C)cc(C)c2)c(OC)c1 (centres undefined)	8%
Cc1ccc(CN2C3CCCC2CC(NC(=O)c2ccc(C)cc2)C3)cc1 (centres undefined)	0%
O=C(OCc1cc2ccccc2[nH]c1=O)C1CCCCC1	1%
O=C(/C=C/c1ccco1)OCC(=O)c1cccc([N+](=O)[O-])c1	-9%
O=C(O)CC[C@@H](C(=O)O)N1C(=O)c2ccccc2C1=O	6%&10%
Cc1nc(SCC(=O)Nc2ccc(Br)cc2)[nH]c(=O)c1Cc1ccccc1	?
CCOc1cc(C=C(C(=O)OC)C(=O)OC)ccc1OCc1ccc([N+](=O)[O-])cc1	?

Filtered by structure, those above containing two or more sulfur atoms (4)
SMILES	VDR inh
NC(=O)c1ccccc1NS(=O)(=O)c1ccc(S(=O)(=O)N2CCCC2)cc1	5%
CC(C)Cc1nnc(NC(=O)c2ccc(S(=O)(=O)N3CCCC3)cc2)s1	11%
NC(=S)Cc1nc(-c2ccccc2)cs1	?
CN(C)S(=O)(=O)c1ccc(Cl)c(NC(=O)COC(=O)/C=C/c2ccc(S(=O)(=O)N3CCOCC3)cc2)c1	11%

Further results:
SMILES	VDR inh
N#CCCn1nc(-c2ccc(Br)cc2)cc1Nc1ccccc1NC(=O)C(F)(F)F	3%
COc1ccc(-c2cc(=O)oc3c(C)c(OC(C)C(=O)Nc4ccc(CN5CCOCC5)cc4)ccc23)cc1 (centres undefined)	1%
CC(C)(C)NC(=S)NCc1ccco1	8%
Cc1ccc(NS(=O)(=O)c2cccc(C(=O)NNC(=O)c3cccn3C)c2)c(C)c1	22%
CCCCc1ccc(NC(=O)Cn2cnc3c2c(=O)n(C)c(=O)n3C)cc1	2%
Cc1ccc(CNC(=O)C2CCCN(S(=O)(=O)c3cccc4nonc34)C2)cc1 (centres undefined)	6%
CCN(C[C@H]1N[C@@](Cc2ccccc2)(C(=O)OC)[C@H]2C(=O)N(C)C(=O)[C@@H]12)C(=O)C1CCCCC1	1%
CC1CN(S(=O)(=O)c2ccc(C(=O)Nc3ccc(S(=O)(=O)N4CCOCC4)cc3)cc2)CC(C)O1 (centres undefined)	3%
CC1CCN(C(=S)NC(=O)c2cccc([N+](=O)[O-])c2)CC1	-14%
COc1ccc(/C=N/NC(=O)c2cccc(NC(=O)c3ccccc3Cl)c2)cc1OC	-4%
COc1cccc(NC(=O)CSc2nc3c([nH]c4ccccc43)c(=O)n2-c2ccccc2)c1	9%
Cc1cccc(OCC(=O)Nc2cccc(-c3nnc(-c4ccccc4)o3)c2)c1C	-1%
O=C(c1ccco1)N(Cc1ccc([N+](=O)[O-])cc1)c1ccc(Cl)cc1	-14%
O=C(Cc1cccc(NC(=O)C2CCCN(C(=O)C3CC3)C2)c1)Nc1ccc(C(=O)N2CCOCC2)cc1 (centres undefined)	-8%
CN1C(=O)C(=O)/C(=C(/O)c2ccccc2)C1c1ccc(Br)cc1 (centres undefined)	-7%
Cc1ccsc1C=Nc1c(C)n(C)n(-c2ccccc2)c1=O	-1%
COc1cc(C2/C(=C(\O)c3ccc4c(c3)CC(C)O4)C(=O)C(=O)N2CC2CCCO2)cc(OC)c1OC (centres undefined)	-6%
NS(=O)(=O)Oc1ccccc1	-9%
CC1CCCC(NC(=O)COC(=O)CCC2CCCC2)C1C (centres undefined)	1%
Cc1ccc(CS(=O)(=O)Cc2ccc(C(=O)NC3CCCCCC3)o2)cc1	6%
Cc1ccccc1C(=O)Nc1ccnn1C1CCN(Cc2c(C)n(C)c3ccccc23)CC1	1%
CCOc1ccc(C(=O)NCC(=O)OCc2c(F)cccc2Cl)cc1	-18%
O=C(CCC1CCCC1)Nc1ccc(Br)cn1	-7%
CC(C1CC1)N(C(=O)c1ccccc1O)c1ccccc1 (centres undefined)	-7%
CC(=O)OC(=C(OC(C)=O)c1ccccc1)c1ccccc1	1%
CN1CCN(c2ccccc2NC(=O)c2ccc(-c3ccc(Cl)cc3Cl)o2)CC1	-25%
O=C(O)c1ccc(CSCc2ccco2)cc1	2%
CN(C)C(CNC(=O)CCCc1c[nH]c2ccccc12)c1ccco1 (centres undefined)	1%
c1csc(CNc2ccc3c(c2)OCCO3)c1	-20%
CCOP(C)(=O)C1(C(=O)OCc2ccccc2)CC1 (centres undefined)	18%

Ordered by count of non-hydrogen atoms (lowest first): six of the compounds above.
SMILES	VDR inh
C/[N+]([O-])=C1\Cc2ccccc2C1=O	-1%
CC1CCCC(NC(=O)COC(=O)CCC2CCCC2)C1C (centres undefined)	1%
COCCNc1c([N+](=O)[O-])c(=O)n(-c2ccccc2)c2ccccc12	-12%
Cc1ccc(Cl)cc1NC(=O)CCn1c(=O)c2cccn2c2cccnc21	11%
N#CCCn1nc(-c2ccc(Br)cc2)cc1Nc1ccccc1NC(=O)C(F)(F)F	3%
COc1ccc(C=NNc2ccc([N+](=O)[O-])cc2S(=O)(=O)Nc2ccccc2C(=O)O)cc1OC	?

(listing goes on)
SMILES	VDR inh
COc1ccc(NC(=O)CN2CCCCC2)cc1S(=O)(=O)N1CCCCC1	9%
CCOC(=O)CSc1nnc(CNC(=O)c2cccs2)n1-c1cc(OC)ccc1OC	10%
Cc1ccc(NC(=S)Nc2ccc(F)cc2)c(C)c1	4%
CCOC(=O)c1c(/N=C/c2ccc(OC)cc2O)sc2c1CCN(C)C2	-17%
CCOC(=O)c1c(N2C(=O)Nc3ccccc3N2O)n[nH]c1-c1cccc(OC)c1	3%
O=C(NC1CCCC1)c1cc(Nc2cccc(C(F)(F)F)c2)nc2ccccc12	5%
CN(c1ccccc1C(=O)Nc1cccc([N+](=O)[O-])c1)S(C)(=O)=O	?
CN1CCN(c2ccc(C(F)(F)F)cc2NC(=O)c2ccco2)CC1	-1%
CN1CC2([N+](=O)[O-])CC=C(OCCO)C([N+](=O)[O-])(C1)C2 (centres undefined)	14%
Cc1ccc(C)c(Nc2cc(C(=O)NCc3cccnc3)c3ccccc3n2)c1	7%
O=S(=O)(c1cc(F)ccc1F)N1CCN(c2ccccn2)CC1	-15%
CC(C)CN(C(=O)COC(=O)/C=C/c1ccc(Cl)c(Cl)c1)c1c(N)n(Cc2ccccc2)c(=O)[nH]c1=O	-9%
COC(=O)c1cc(S(=O)(=O)N(C)Cc2ccco2)c[nH]1	5%
c1ccc(-c2nnc(CN3CCN(c4ccccc4)CC3)o2)cc1	6%&14%
NCCC[C@@H](CC(=O)N[C@@H]1CCCC[C@H]1C(=O)N[C@H](CC(=O)N[C@@H](CCC(=O)O)CC(=O)O)Cc1ccccc1)NC(=O)C[C@H](Cc1ccccc1)NC(=O)[C@@H]1CNCC[C@H]1N	-7%
COc1cc(OC)cc(C(=O)NCCc2csc3nc(-c4ccccc4F)nn23)c1	2%
Cc1cc(C(=O)N2CCN(C(c3ccccc3)c3ccccc3)CC2)on1	11%
O=C(CCN1C(=O)c2ccccc2C1=O)N1CCOCC1	8%
CNc1ncnc2c1ncn2[C@@H]1O[C@H](CO)[C@@H](O)[C@@H]1O	-12%
Cn1c(SCC(=O)NNC(=O)c2ccc(Cl)cc2)nnc1-c1cccnc1	6%

6 entries picked at random from the list so far:
SMILES	VDR inh
CC(C)CN(C(=O)COC(=O)/C=C/c1ccc(Cl)c(Cl)c1)c1c(N)n(Cc2ccccc2)c(=O)[nH]c1=O	-9%
COC(=O)c1cc(S(=O)(=O)N(C)Cc2ccco2)c[nH]1	5%
c1ccc(-c2nnc(CN3CCN(c4ccccc4)CC3)o2)cc1	6%&14%
O=S(=O)(c1cc(F)ccc1F)N1CCN(c2ccccn2)CC1	-15%
Cc1cc(C(=O)N2CCN(C(c3ccccc3)c3ccccc3)CC2)on1	11%
COc1cc(OC)cc(C(=O)NCCc2csc3nc(-c4ccccc4F)nn23)c1	2%

Following part
SMILES	VDR inh
COc1ccc2c(c1)[C@@H]1[C@H](CO2)[C@H](c2ccccc2)[C@]2(C)C(=O)Nc3ccc(C)cc3C(=O)N12	-12%
O=C(NCc1ccco1)c1ccccc1-c1nc(-c2ccccc2)no1	4%
CSCCC(NC(=O)c1ccc([N+](=O)[O-])cc1Cl)C(=O)OCC(=O)NC1CCCC(C)C1C (centres undefined)	-7%
O=C(NCc1ccc2c(c1)OCO2)C1CC(=O)N(c2ccc(Cl)cc2)C1 (centres undefined)	-3%
COc1cc(C(C#N)N2CCC(c3ccccc3)=N2)ccc1O (centres undefined)	-14%
Cc1cc(-c2nn(-c3ccccc3F)cc2CN2CCCC(O)C2)c(C)s1 (centres undefined)	-18%
O=C(C1CCC(Cn2c(=S)[nH]c3ccccc3c2=O)CC1)N1CCOCC1 (centres undefined)	-4%
CCCn1nc(C(=O)N2CCN(c3ccccn3)CC2)c2ccccc2c1=O	8%
CCOc1ccc(OCC)c(NC(=O)CSc2nnc(Cn3cnc4ccccc43)n2C)c1	2%
CCOC(=O)COn1c(=O)c(=O)n(OC)c2ccccc21	-2%
N#Cc1nc(COc2ccc(Cl)cc2)oc1N1CCCCCC1	-16%
CCC(C)c1ccccc1NC(=S)Nc1cccnc1 (centres undefined)	-21%
Cn1c(=O)c2c(nc(N/N=C/c3cccs3)n2Cc2ccccc2)n(C)c1=O	-11%
COc1ccc(S(=O)(=O)N2CCc3ccccc32)cc1C(=O)Nc1cccnc1	0%
Cc1cc(C(=O)CCC(=O)NNC(=O)c2ccccc2O)c(C)s1	9%
Cc1cc(/C=C(\C#N)C(=O)Nc2ccccc2)c(C)n1-c1cccnc1	-11%
CCOC(=O)c1nc(Nc2ccc(C(=O)OC(C)C)cc2)c2ccccc2n1	-21%
CCOC(OCC)OCC	-7%
Cc1ccc(Cn2cc(S(=O)(=O)c3cccc(Cl)c3)c(=O)c3cc(F)c(N4CCCCC4)cc32)cc1	17%
CC(C)(CO)N1CCN(C(=S)Nc2ccccc2)CC1	-2%
COc1ccccc1C(=O)NC(CCSC)C(=O)NCc1ccccn1 (centres undefined)	-22%
CCC(Oc1ccccc1)C(=O)Nc1ccc(-c2nnc(-c3ccco3)o2)cc1 (centres undefined)	5%
O=C(Nc1cccc(S(=O)(=O)N2CCCC2)c1)c1ccc2c(=O)n3c(nc2c1)CCCCC3	-26%
O=C(Nc1ccc(C(=O)N2CCCC(CO)C2)cc1)c1ccc(Br)o1 (centres undefined)	-21%
Cc1ccc(C2=Nc3ccc(Br)cc3C(c3ccncc3)=NN2)cc1	-6%
COc1cc(C2C(C#N)=C(N)Oc3c2ccc2ccccc32)ccc1OCC(=O)Nc1ccccc1C (centres undefined)	-1%
CN1CCN(c2nc3c(c(=O)[nH]c(=O)n3C)n2CCCSc2nnnn2-c2ccccc2)CC1	-11%
CC1(C)Cc2nc3sc4c(=O)n(CC(N)=O)cnc4c3cc2CO1	5%
CCC(=O)NC1OC(CO)C(O)C(O)C1O (centres undefined)	4%
CCOc1ccc(C(=O)Nc2ccc(-c3nc4cc(C(C)C)ccc4o3)cc2)cc1Cl	-3%
O=C(Nc1ccccc1)c1cccc(N2CCCS2(=O)=O)c1	-1%
O=C(CCS(=O)(=O)c1ccccc1)N(Cc1cccnc1)c1nc2c(F)cccc2s1	6%
CC(=O)N1CCc2cc(Br)cc(S(=O)(=O)CCC(=O)N3CCN(c4ccccn4)CC3)c21	36%[activator]
COc1ccc(S(=O)(=O)N2CCCCCC2)cc1C(=O)N(C)Cc1cccc(OC)c1OC	0%
